Beta cell apopt = beta cell apoptosis inhibition; INS-1E cytokine-induced death, ATP luminescence, 48 h; percent of positive-control rescue, neutral wells zero; protection from apoptosis, % (test concentration not listed); 300,000 tested, 0.8% active; AID 435005;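 active = all replicates at 75% or more, or half of them and the mean; inconclusive = half reach 75% but not the mean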;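 also: 0% = cytokine-treated negative control wells and 100% = positive control rescue; higher means more ATP so stronger rescue from cytokine killing; wells of about 40 µL received 100 nL stock; the first replicate is given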
RanGTP-Imp inh = inhibitors of RanGTP-importin-beta interaction, primary screen, biochemical, FRET, CFP-Ran, YFP-importin-beta, homogeneous. AID 2216. 300,000 tested, 1.1% active. cell-free CFP-Ran/YFP-importin-beta FRET ratio. inhibition, % (concentration not given with the values);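 active = most replicates above 15%; inconclusive = exactly half above 15%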;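 also: 0% = DMSO wells and 100% = Ran loaded with GDP instead of GTP; wells of about 40 µL received 100 nL stock; the first replicate is given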
A1 inh = inhibitors of the anti-apoptotic protein A1, read as caspase activation; AID 2462; 330,000 tested, 0.066% active; MEF A1-2A-BIM cells, Caspase-Glo 3/7 luminescence, 3 h; percent of clofoctol response, vehicle zero; caspase activation, % (concentration not given with the values);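 active = over half of replicate activation scores above 10%, or exactly half above 10 with the replicate mean above 10; inconclusive = replicate mean below 10 yet half the replicates above 10; inactive = over half of replicates below 10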;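 also: wells of about 30 µL received 50 nL stock; many hits fall short of the cut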
B2AR ag = activates human beta-2 adrenergic receptor causing internalization; response, % (concentration not given with the values); Am2.2-beta2AR cells, FAP receptor internalization, flow cytometry; reference of the scale not given here; P07550; 340,000 tested, 0.43% active;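 active = response above a set limit, near 3 SD of response in nonfluorescent compounds, cut at about 42% in these data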;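 also: stock transfer was 100 nL into about 11 µL; a reference agonist was the positive control; negative values mostly stem from fluorescent compounds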
Target sequence (P07550 whole entry, looked up): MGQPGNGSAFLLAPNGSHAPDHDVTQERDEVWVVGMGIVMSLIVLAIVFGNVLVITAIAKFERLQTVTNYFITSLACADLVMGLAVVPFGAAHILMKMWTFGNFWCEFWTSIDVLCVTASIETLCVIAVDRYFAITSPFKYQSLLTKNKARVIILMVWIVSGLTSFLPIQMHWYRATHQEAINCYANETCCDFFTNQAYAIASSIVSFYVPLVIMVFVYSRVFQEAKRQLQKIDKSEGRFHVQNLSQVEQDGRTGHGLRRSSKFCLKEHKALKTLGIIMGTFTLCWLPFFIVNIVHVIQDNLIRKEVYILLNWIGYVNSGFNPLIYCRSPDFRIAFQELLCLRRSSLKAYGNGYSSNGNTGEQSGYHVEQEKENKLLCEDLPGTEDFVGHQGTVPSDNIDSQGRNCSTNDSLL
LANA-H2A inh = blocks KSHV LANA binding to histone H2A/H2B; 320,000 tested, 0.6% active; inhibition, % (concentration not given with the values); AID 2629; Q9QR71; cell-free LANA-H2A/H2B peptide, fluorescence polarization; in the data active = inhibition mostly above about 10%, no sharp cut-off; inactive = mostly below about 6.7%;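 also: stock transfer was 7.5 nL into about 10 µL; 0% = median of vehicle wells and 100% = median of positive control wells; one replicate is shown; the record names a cut of 25% in any replicate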
UCH37 DUB inh = human UCH37 deubiquitinating enzyme inhibition; Q9Y5K5; purified proteasome/UCH37, Ub-AMC cleavage fluorescence; inhibition, % (concentration not given with the values); 330,000 tested, 0.33% active; AID 588478;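 active = mean of two replicates above 20%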;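 also: 0% = compound-free wells with enzyme and 100% = wells lacking proteasome; stock transfer was 100 nL into about 20 µL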
Target sequence (Q9Y5K5 whole entry, looked up): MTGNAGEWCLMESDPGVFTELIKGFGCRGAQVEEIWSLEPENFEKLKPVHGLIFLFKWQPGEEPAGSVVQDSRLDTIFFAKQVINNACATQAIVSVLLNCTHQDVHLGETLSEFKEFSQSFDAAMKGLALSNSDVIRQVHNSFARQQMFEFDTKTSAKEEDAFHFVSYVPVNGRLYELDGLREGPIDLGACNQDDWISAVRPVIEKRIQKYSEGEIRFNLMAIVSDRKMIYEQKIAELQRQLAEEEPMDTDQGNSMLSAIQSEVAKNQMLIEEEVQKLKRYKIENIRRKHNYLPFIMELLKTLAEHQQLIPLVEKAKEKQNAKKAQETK
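Material: human UCH37 enzyme supplied as purified proteasome complex. Measure: % inhibition of Ub-AMC cleavage fluorescence. Medium: pH 7.4 Tris-HCl (50 mM) with ovalbumin, ATP-MgCl2, DTT. Times: 30 min preincubation with enzyme, 25 min cleavage at room temperature. Detection: AMC fluorescence intensity at 355/460 nm.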
Calb FLC = affects C. albicans growth with fluconazole. growth inhibition, % (test concentration not listed). 300,000 tested, 0.57% active. AID 1979. C. albicans CaCi-2 (fluconazole-resistant clinical isolate) + fluconazole, Alamar Blue growth, 48 h;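 active = most replicates above 75%; inconclusive = exactly half above 75%; inactive = most below 75%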;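 also: all wells also contain fluconazole at 8 µg/ml as a sub-toxic cotreatment; 0% = median of DMSO wells and 100% = median of geldanamycin control wells; wells of about 8 µL received 7.5 nL stock; the first replicate is given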
T cruzi inh = T. cruzi replication inhibition; inhibition, % (concentration not given with the values); 300,000 tested, 1.4% active; T. cruzi beta-gal in NIH3T3, luminescence, 90 h;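 active = mean inhibition across valid replicates above about 55%, limit read from the data; inconclusive = mean below that limit but half or more replicates reach it; inactive = mean below it, under half of replicates reach it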;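 also: signal also drops with host cell toxicity which is not excluded here; 0% = plate median of DMSO wells and 100% = zero luminescence signal; higher percent means less beta-gal luminescence so fewer parasites; stock transfer was 50 nL into about 50 µL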
An asterisk follows results filed as active; ? = inconclusive; / = no result given. Outcome played no part in choosing rows (roughly 4.3% active in at least one column).

The opening two compounds, ahead of the listing:
SMILES | Beta cell apopt | RanGTP-Imp inh | A1 inh | B2AR ag | LANA-H2A inh | UCH37 DUB inh | Calb FLC | T cruzi inh
Cc1ccc(C(=O)NCc2ccncc2)cc1S(=O)(=O)Nc1cccc(C)c1C | 3 | -0.9 | -0.7 | 9 | -0.5 | -1.1 | -11 | 9
O=C(Nc1ccn(-c2ccccc2)n1)c1ccc(Cl)cc1 | -5 | 6.9 | 0.0 | 5 | 3.2 | -0.1 | 0 | 23

All compounds of this part (from the top)
SMILES | Beta cell apopt | RanGTP-Imp inh | A1 inh | B2AR ag | LANA-H2A inh | UCH37 DUB inh | Calb FLC | T cruzi inh
Cc1ccc(C(=O)NCc2ccncc2)cc1S(=O)(=O)Nc1cccc(C)c1C | 3 | -0.9 | -0.7 | 9 | -0.5 | -1.1 | -11 | 9
O=C(Nc1ccn(-c2ccccc2)n1)c1ccc(Cl)cc1 | -5 | 6.9 | 0.0 | 5 | 3.2 | -0.1 | 0 | 23
CCN(CCCNC(=O)CSc1cc(=O)n(C)c2cc(Cl)ccc12)Cc1ccccc1 | 6 | 4.4 | -0.1 | -19 | -1.9 | -0.3 | 18 | 42
NS(=O)(=O)c1ccc(CCNC(=O)/C=C/c2ccc([N+](=O)[O-])cc2)cc1 | 3 | 0.0 | 0.2 | 7 | 2.5 | 6.3 | 57 | 7
O=C(O)/C=C\C(=O)N1CCc2ccccc21 | -2 | 4.9 | -0.5 | 0 | 1.2 | 1.3 | 0 | -1
CC(OC(=O)c1n[nH]c2ccccc12)C(=O)Nc1ccccc1[N+](=O)[O-] (configuration not stated) | -4 | / | -0.3 | -5 | 1.9 | -0.1 | / | /
S=C(NCCCN1CCOCC1)Nc1ccc(Cl)cc1Cl | -2 | -2.4 | 0.0 | 2 | -4.0 | 1.7 | -6 | 22
N#CC1=C(N)OC2=C(C(=O)CCC2)C1C1C=CCCC1 (configuration not stated) | 0 | 4.1 | -0.2 | 12 | 0.0 | 4.3 | -30 | -21
Cc1cc(C)cc(OCc2nnc(SCC(=O)Nc3ccccc3)o2)c1 | 0 | 4.4 | 0.7 | -1 | -0.1 | 1.3 | 2 | -3
CCCCC(=O)c1ccc(O)cc1O | / | 2.4 | -0.5 | -3 | -4.1 | / | 41 | -12
CN=C1CC(SC)=C1c1ccc(C)cc1 | -3 | 2.0 | 1.1 | 37 | -0.8 | 0.5 | -33 | 11
CCc1cc2c(=O)c(-c3cnn(-c4ccccc4)c3)coc2c(CN2CCOCC2)c1O | 10 | -1.2 | -0.2 | 4 | 6.1 | -28 | 27 | 24
COc1ccc(N2C(=O)C3C4C=CC(C5CC45)C3C2=O)c([N+](=O)[O-])c1 (configuration not stated) | -2 | 2.0 | -0.6 | 1 | 3.2 | -1.5 | 11 | 12
O=C(N/N=C/c1ccc(N2CCOCC2)cc1)C1CC1 | -3 | 0.3 | -0.7 | -4 | 1.8 | / | 3 | -23
Cc1nc(NCCc2ccc(S(N)(=O)=O)cc2)c2c(C)c(C)sc2n1 | ? | 0.6 | -0.2 | 10 | 2.6 | 0.9 | -1 | -7
CCC(=O)Nc1nc(CC(=O)Nc2ccccc2)cs1 | 0 | 0.5 | 0.1 | -6 | 0.8 | 4.0 | 6 | -1
Cc1cc(C)cc(C(=O)NCC(=O)N2CCN(C(c3ccccc3)c3ccccc3)CC2)c1 | -13 | -2.9 | -0.1 | -9 | 2.7 | -0.8 | -20 | 9
COc1cccc(NC(=O)CSc2nnc(-c3cc(-c4ccccn4)nc4ccccc34)o2)c1 | 9 | 2.8 | 1.8 | -6 | 1.0 | 1.7 | 1 | 23
CCNS(=O)(=O)c1cc(S(C)(=O)=O)ccc1Cl | -7 | 0.1 | -0.1 | -6 | -1.7 | -0.1 | -4 | -11
CCN(CC)C1CC(=O)N(c2cccc(C)c2)C1=O (configuration not stated) | -8 | 0.3 | 0.4 | / | 1.8 | / | -4 | -14
Cc1nn(C(=O)CNC(=O)c2ccccc2)c(C)c1C | -8 | 3.6 | 1.9 | -1 | 9.6* | 3.3 | 16 | 9
CCSc1nc(NCCN(C)C)c2c3c(sc2n1)COC(C)(CC)C3 (configuration not stated) | 0 | -3.2 | 3.5 | 1 | -9.1 | -6.7 | -13 | 27
CNC(=O)c1oc(-c2ccc(Cl)cc2)nc1C | 0 | 3.1 | 1.2 | -2 | -0.2 | 6.0 | -2 | -4
CCCCOc1cccc(C(=O)O)c1 | / | 11 | -0.8 | -3 | 2.4 | 2.1 | -2 | /
CC(C(=O)c1ccccc1)n1cnc2ccccc2c1=O (configuration not stated) | 0 | 4.2 | 0.3 | 5 | 0.6 | 0.4 | -21 | 3
COc1ccc(/C=C/C(=O)c2c(O)c(OC)c3occc3c2OC)cc1 | / | 2.8 | / | 18 | / | 4.2 | -20 | /
CCOC1(NC(=O)c2ccccc2)C(C)=CC(=O)C=C1C | -16 | 2.9 | 0.4 | -6 | 0.7 | 1.1 | 2 | -3
CCc1ccc(-c2nn(Cc3ccccc3)cc2/C=C/C(=O)O)cc1 | 0 | 3.7 | 0.4 | -8 | -0.9 | 0.9 | 24 | -1
COc1ccc(CNC(=O)[C@H](C)NC(=O)C2CC(=O)N(c3ccc(OC)cc3)C2)cc1 (some centres not stated) | -1 | -2.7 | 0.7 | -2 | 2.6 | -0.5 | / | -2
O=C1CC(c2ccccc2F)C2=C(COC2=O)N1 (configuration not stated) | -6 | -1.3 | -0.6 | -7 | 2.1 | 2.1 | 7 | -10
Clc1ccc2c(NCc3cccs3)ncnc2c1 | 21 | 2.2 | -2.8 | -2 | 3.9 | 3.4 | 13 | 0
CS(=O)(=O)Nc1ccc(C(=O)NC2CCCC2)cc1 | 0 | -0.6 | 0.1 | -2 | 2.1 | 1.4 | -5 | 14
CCCOc1ccc(-c2cnc(SCC(N)=O)nc2N)cc1 | 1 | -3.7 | -0.4 | 39 | 2.4 | 0.7 | -5 | -7
C=CCN=C1CCCc2c1[nH]c1ccc(C)cc21 | -1 | 2.2 | -1.4 | 11 | 1.5 | -37 | -4 | -3
Cc1cccc(NC(=O)c2cnn3ccccc23)c1C | 5 | 0.8 | -1.8 | -9 | 1.9 | 1.0 | -4 | -8
Cc1onc(-c2c(F)cccc2Cl)c1C(=O)OCC(=O)NC1CC1 | 2 | -3.4 | 0.8 | 2 | 6.8 | -2.6 | 33 | 2
Cc1ccc(-c2cc(-c3ccccc3O)nc(N/N=C/c3cccnc3)n2)cc1 | 25 | 1.4 | -0.5 | -3 | 1.1 | / | -3 | 25
COc1ccccc1/C=C1\SC(=S)N(N2C(=O)CCCC2=O)C1=O | / | -5.0 | -0.1 | -1 | -0.1 | 6.3 | 13 | 5
Cc1c(C(=O)N2CCC2)oc2c(F)cccc12 | -2 | / | 0.8 | -5 | -1.2 | 1.1 | / | /
Cc1cccc(C(=O)NC2CCN(C(=O)Nc3ccc(F)cc3)CC2)c1 | 3 | 1.3 | -0.1 | 1 | -1.8 | 4.2 | 2 | -11

An excerpt from the list above, for reference:
SMILES | Beta cell apopt | RanGTP-Imp inh | A1 inh | B2AR ag | LANA-H2A inh | UCH37 DUB inh | Calb FLC | T cruzi inh
Cc1c(C(=O)N2CCC2)oc2c(F)cccc12 | -2 | / | 0.8 | -5 | -1.2 | 1.1 | / | /
Cc1cccc(C(=O)NC2CCN(C(=O)Nc3ccc(F)cc3)CC2)c1 | 3 | 1.3 | -0.1 | 1 | -1.8 | 4.2 | 2 | -11

Next compounds follow:
SMILES | Beta cell apopt | RanGTP-Imp inh | A1 inh | B2AR ag | LANA-H2A inh | UCH37 DUB inh | Calb FLC | T cruzi inh
O=C(NC1CC2CCCC(C1)N2C(=O)NC1CCCCC1)c1ccccc1 (configuration not stated) | -5 | -1.4 | 0.1 | -9 | -9.3 | 4.2 | 0 | 1
O=C(Cn1ncc2c(=O)oc3ccccc3c21)NCc1cccnc1 | -1 | 5.1 | -0.5 | 1 | -4.0 | 1.2 | -3 | -2
C=CCn1cc(CN2CCC(C(=O)Nc3cccc(-c4cccc(F)c4)c3)CC2)c(C)n1 | 0 | 2.6 | ? | 7 | -24 | 6.6 | -15 | 11
Cn1nnc(NC(=S)NC(=O)c2cccc3c(Br)cccc23)n1 | -8 | 2.2 | -0.1 | -3 | -3.8 | / | 3 | -8
O=C(c1cc(F)ccc1F)C1CCCN(C(=O)c2ccco2)C1 (configuration not stated) | 3 | ? | 0.4 | -11 | -2.2 | 1.9 | -8 | 12
Cc1ccc(-c2cc3cccc[n+]3cc2-c2ccc(C)cc2)cc1 | 110* | -2.2 | -0.7 | -11 | -3.4 | -303 | -2 | 60*
Cc1c(Cl)cccc1NC(=S)NCc1cccn1C | 2 | 5.9 | -0.2 | 5 | 2.4 | 0.8 | -4 | -4
CCN(CC)CCCOC(=O)C1(c2ccccc2)CCCC1 | 0 | ? | 1.6 | 0 | 1.2 | 3.9 | 0 | 23
COc1ccc(-c2csc(NC(=O)c3cccc(N4C(=O)CCC4=O)c3)n2)cc1OC | 1 | / | -1.1 | 9 | -7.4 | -0.5 | / | /
Nc1cc(N)nc(SCC(=O)Nc2ccccc2)n1 | -3 | -4.4 | -0.7 | 5 | -1.5 | 1.2 | / | 6
O=C(NCC1CCCN(Cc2ccccc2F)C1)c1cccc(C(F)(F)F)c1 (configuration not stated) | -3 | 3.6 | 0.7 | 0 | -4.1 | 1.5 | -1 | 66*
Cc1nn(Cc2ccc([N+](=O)[O-])cc2)c(=O)n1-c1c(F)cccc1F | -6 | ? | -0.1 | 0 | 3.0 | 0.4 | -11 | -8
CCC1CCCCN1C(=O)Cn1c(C(=O)OC)cc2ccsc21 (configuration not stated) | 6 | -1.8 | -0.2 | 10 | 5.3 | 1.6 | -26 | 9
Cc1nn(Cc2ccc(C(=O)O)o2)c(C)c1[N+](=O)[O-] | / | 0.7 | -0.3 | 11 | -3.5 | 2.8 | -7 | -14
O=C(NCC1CCCO1)c1ccc2c(c1)OCO2 (configuration not stated) | / | 1.8 | -0.1 | 6 | 0.6 | 0.2 | -1 | -14
CCC(C)NC(=O)CC(NS(=O)(=O)c1ccc(C)cc1)c1ccc(OC)cc1 (configuration not stated) | / | 6.8 | 0.2 | 6 | 1.6 | 0.8 | -12 | -11
CCOc1ccc(S(=O)(=O)NCC2CCCO2)cc1 (configuration not stated) | / | -1.5 | -0.1 | 11 | 5.3 | 5.7 | 19 | -14
CSCCC(NC(=O)COc1ccccc1)C(=O)OC(C)C(=O)Nc1ccccc1C (configuration not stated) | 4 | 0.5 | 0.9 | 2 | 0.9 | 1.0 | 5 | -6
Cc1ccc(-c2nc3ncccc3o2)cc1NC(=O)Cc1ccc(Cl)cc1 | 6 | 0.4 | 0.6 | -14 | 4.3 | -1.9 | 5 | -3
C=CCNc1nnc(SC2CC(=O)N(c3ccc(OC)cc3)C2=O)s1 (configuration not stated) | -10 | 2.5 | 0.6 | 6 | 1.0 | 1.7 | -1 | 12
Cc1ccc(NC(=O)CCS(=O)(=O)c2ccc(Br)cc2)nc1 | -3 | 1.4 | 0.8 | -7 | 0.7 | -0.4 | 7 | -15
Cc1nc2c(oc3ccc(Cl)cc32)c(=O)[nH]1 | -2 | 1.0 | -4.0 | -3 | -5.6 | 3.2 | 3 | 8

Bioassay records as filed in PubChem.
